Source: PubChem BioAssay (several laboratories)
B2AR ag = activates human beta-2 adrenergic receptor causing internalization; P07550; Am2.2-beta2AR cells, FAP receptor internalization, flow cytometry; reference of the scale not given here; response, % (concentration not given with the values); 340,000 tested, 0.43% active;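 active = response above a set limit, near 3 SD of response in nonfluorescent compounds, cut at about 42% in these data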;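 also: stock transfer was 100 nL into about 11 µL; a reference agonist was the positive control; negative values mostly stem from fluorescent compounds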
FGF22 binding = shifts melting point of recombinant human FGF22; recombinant FGF22 thermal shift, SYPRO orange fluorescence; percent of sucrose octasulfate shift, DMSO zero; calls only at 9.99 µM; 340,000 tested, 1.5% active;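 active = melting point raised past a set limit in the mean and every replicate; three in four hits are not shown here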
UCH37 DUB inh = blocks the human deubiquitinase UCH37. Q9Y5K5. purified proteasome/UCH37, Ub-AMC cleavage fluorescence. inhibition, % (no concentration beside the values). 330,000 tested, 0.33% active. AID 588478;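 active = mean of two replicates above 20%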;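 also: 0% = compound-free wells with enzyme and 100% = wells lacking proteasome; stock transfer was 100 nL into about 20 µL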
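system = Proteasome-associated human UCH37 deubiquitinase | amount = 0.15 nM proteasome as dispensed | medium = pH 7.4 Tris-HCl (50 mM) with ovalbumin, ATP-MgCl2, DTT | incubation = 30 min preincubation with enzyme, 25 min cleavage at room temperature | detection = AMC fluorescence 355/460 nm | read-out basis = percent inhibition | controls = no-proteasome and no-compound wells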
ALR inh = human ALR oxidase inhibition via reduced H2O2; P55789; 290,000 tested, 3.8% active; inhibition, % (concentration not given with the values); purified ALR, DTT oxidation, H2O2 HRP-luminol luminescence; AID 485317;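 active = mean and each replicate at 75% or more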;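 also: stock transfer was 7.5 nL into about 7.5 µL; 0% = neutral wells and 100% = wells with inactivated enzyme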
Ecoli growth = blocks Escherichia coli growth; OD600, 23 h; stronger effect = lower value; OD600 absorbance (no concentration beside the values); 330,000 tested, 0.21% active;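 active = OD600 absorbance below the run mean of sample wells minus 3.6 SD, in any replicate, cut at about 0.56 in these data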;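 also: stock transfer was 300 nL into about 60 µL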
HNF4A DNA FP = change in binding of human HNF4 alpha to DNA; 360,000 tested, 0.3% active; P41235; activity change, % at 10 µM; HNF4a-FITC DNA binding, fluorescence polarization, 1 h; AID 1224865; in the data active = activity change above about 30%, passing the limit was not always enough;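 also: controls were the assay level and a saturating level of protein; the project sought stronger binding though the title names inhibitors; some compounds called inactive have numbers as strong as hits; positive values seem to mean higher polarization but the record does not say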
LANA-H2B inh = blocks KSHV LANA binding to histone H2A/H2B | Q9QR71 | cell-free LANA-H2A/H2B peptide, fluorescence polarization | inhibition, % (concentration not given with the values) | 320,000 tested, 0.6% active | AID 2629; in the data active = inhibition mostly above about 10%, no sharp cut-off; inactive = mostly below about 6.7%;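 also: stock transfer was 7.5 nL into about 10 µL; 0% = median of vehicle wells and 100% = median of positive control wells; one replicate is shown; the record names a cut of 25% in any replicate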
Target sequence (Q9QR71 whole entry, looked up): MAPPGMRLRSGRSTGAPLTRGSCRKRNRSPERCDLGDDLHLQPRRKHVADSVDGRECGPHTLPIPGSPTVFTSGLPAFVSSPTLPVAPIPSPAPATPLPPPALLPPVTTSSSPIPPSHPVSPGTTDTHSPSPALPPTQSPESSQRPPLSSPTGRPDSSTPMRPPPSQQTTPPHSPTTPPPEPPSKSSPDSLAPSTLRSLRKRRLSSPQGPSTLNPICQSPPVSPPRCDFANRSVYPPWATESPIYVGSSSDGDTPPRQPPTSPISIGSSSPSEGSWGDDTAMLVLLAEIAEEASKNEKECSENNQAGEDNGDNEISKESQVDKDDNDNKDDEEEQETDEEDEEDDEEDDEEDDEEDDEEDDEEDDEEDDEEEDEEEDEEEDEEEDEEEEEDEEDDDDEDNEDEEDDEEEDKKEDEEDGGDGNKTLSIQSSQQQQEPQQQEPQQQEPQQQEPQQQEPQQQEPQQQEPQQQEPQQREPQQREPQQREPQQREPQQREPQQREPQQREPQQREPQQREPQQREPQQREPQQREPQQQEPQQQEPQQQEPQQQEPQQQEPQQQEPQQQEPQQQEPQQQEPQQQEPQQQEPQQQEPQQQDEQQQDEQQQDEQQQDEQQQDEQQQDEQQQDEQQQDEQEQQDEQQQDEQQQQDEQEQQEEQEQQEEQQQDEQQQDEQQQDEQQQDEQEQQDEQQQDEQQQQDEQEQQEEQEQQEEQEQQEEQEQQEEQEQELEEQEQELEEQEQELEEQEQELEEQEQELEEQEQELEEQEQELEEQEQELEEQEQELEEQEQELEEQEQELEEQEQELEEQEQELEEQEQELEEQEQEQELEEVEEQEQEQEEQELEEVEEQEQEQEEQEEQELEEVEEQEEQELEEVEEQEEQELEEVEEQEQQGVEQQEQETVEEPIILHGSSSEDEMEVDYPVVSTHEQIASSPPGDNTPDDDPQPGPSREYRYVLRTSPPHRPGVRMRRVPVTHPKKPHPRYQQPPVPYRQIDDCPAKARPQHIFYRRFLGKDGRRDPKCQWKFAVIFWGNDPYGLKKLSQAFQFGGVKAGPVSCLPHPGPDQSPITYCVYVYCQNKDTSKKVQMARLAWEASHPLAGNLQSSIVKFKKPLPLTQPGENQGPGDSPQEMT
Active calls of the source: *; i = inactive; x = no result given. An excerpt; rates above refer to the full screens.

LANA-H2B inh	ALR inh	FGF22 binding	B2AR ag	UCH37 DUB inh	mol	Ecoli growth	HNF4A DNA FP
-4.2	x	i	-13	1.4	CC[C@H]1C/C=C\Cc2ccccc2[C@H](C(=O)C[C@@H](O)CC(C)=O)OC1=O	0.72	0.2
4.0	-5	x	4	0.8	CCCCC(CC)C(=O)Nc1cccc(SC)c1 (centres undefined)	0.69	-0.3
3.6	-42	i	0	3.0	CCN(CC(=O)Nc1ccc(NC(C)=O)cc1)C(=O)COc1ccc2ccccc2c1	0.69	-6.5
0.2	1	i	-10	0.1	O=C(CC1SC(=Nc2cccc3ccccc23)N(Cc2ccccn2)C1=O)Nc1ccccc1Br (centres undefined)	0.68	1.8
-1.2	x	x	75*	-223	COc1ccc(CSc2ccc(-c3nc4ccccn4c3NCc3ccccc3)cc2OC)cc1	0.75	4.0
8.8	-4	i	-3	0.8	O=C(c1cccc(Cl)c1)N1CCCc2ccccc21	0.61	3.5
3.1	-19	i	-4	1.3	O=C(NCC(c1ccco1)N1CCc2ccccc2C1)c1ccc([N+](=O)[O-])cc1 (centres undefined)	0.68	0.6
2.1	1	i	-9	0.6	CC(C)Oc1cccc(C(=O)C2CCCN(S(=O)(=O)C(C)C)C2)c1 (centres undefined)	0.61	1.1
1.4	72	x	11	-4.4	CCn1c(SC)nc(O)c(C(c2ccc(OC)c(O)c2)c2c(O)nc(SC)n(CC)c2=O)c1=O	0.76	x
1.3	-1	i	-19	2.0	CS(=O)(=O)c1cccc(S(=O)(=O)N2CCN(c3ccccn3)CC2)c1	0.69	-3.3
-4.3	-1	i	7	x	C/C(=N\Nc1nc(-c2ccccc2O)nc2ccccc12)c1ccccc1	x	5.7
-1.6	4	i	x	1.6	CS(=O)(=O)c1ccc(CNC(=O)C2(C(F)(F)F)CC(CCCO)CCCO2)cc1 (centres undefined)	0.69	x
x	x	i	7	x	COC(=O)c1c(C)oc2ccc(N(C(=O)Oc3ccccc3)S(=O)(=O)c3ccccc3)cc12	x	6.9
0.3	-4	x	2	3.3	CC1(C)CC(=O)C(C#N)=C(NCCCO)C1	0.7	2.0
2.2	-9	i	-2	0.0	CCN(CC)CCCSc1nc2ccccc2s1	0.66	0.9
-1.1	-7	i	1	-0.6	O=C(NC1CC1)C1CCN(C2CCN(C(=O)/C=C/c3cccc(F)c3F)CC2)CC1	0.66	1.6
3.8	71	i	4	5.7	Nc1nnc(SCC(=O)c2ccc3c(c2)NC(=O)CO3)s1	0.62	-3.0
-2.3	-9	i	2	-3.1	CCOC(=O)CSc1nc(C)c2cccc(C)c2n1	0.64	-0.8
4.4	-2	x	6	0.5	C=CCNC(NC(=O)c1ccccc1)(C(=O)OCC)C(F)(F)F (centres undefined)	0.63	-2.1
-0.6	21	x	1	-1.0	N#Cc1ccc(NC(=S)Nc2ccccc2)cc1	0.62	0.8

(more compounds)
LANA-H2B inh	ALR inh	FGF22 binding	B2AR ag	UCH37 DUB inh	mol	Ecoli growth	HNF4A DNA FP
x	-1	i	5	-15	Cc1ccc(S(=O)(=O)N2CCN(C(=O)Cn3c(=O)cnc4ccccc43)CC2)cc1	0.71	4.9
-0.4	-8	x	-6	-0.6	Cc1cc(NC(=O)C2CC(c3ccc(Cl)cc3)=NO2)no1 (centres undefined)	0.68	-2.5
x	x	i	4	5.9	CN(C)CCCN(C(=O)CCOc1ccccc1)c1nc2c(F)cccc2s1	0.71	-0.4
0.0	24	x	-3	0.3	CCN1CCN(Cc2ccc(NC(=O)Nc3cccs3)cc2)CC1	0.7	1.6
18*	x	i	24	-154	COc1ccc(N(C(=O)c2snc(C(N)=O)c2N)C(C(=O)NC2CCCCC2)c2ccc(F)cc2)c(OC)c1 (centres undefined)	0.7	0.3
-0.7	42	i	0	0.9	COc1ccc(N2CCN(C(=O)c3nc4nc(C)cc(C)n4n3)CC2)cc1	0.7	-2.9
x	x	i	-7	-1.6	COc1ccc(CNC(=O)COC(=O)c2cc3ccccc3o2)cc1	0.69	-0.7
-7.8	-6	i	-20	5.6	Cc1ccc(OCC(=O)NC(C)c2ccc(Cl)c(Cl)c2)c([N+](=O)[O-])n1 (centres undefined)	0.71	0.0
x	x	i	0	6.0	CCc1ccccc1NC(=O)CN1CCN(C(=O)C(C)NC(=O)c2ccc(Cl)cc2)CC1 (centres undefined)	0.69	2.4
-2.1	0	i	0	9.5	C#CCn1c(O)c(N=NC(=O)CNC(=O)c2cccnc2)c2ccccc21	0.64	-1.6
-2.8	1	i	3	0.3	COCCn1c(SCC(=O)Nc2cc(C)on2)nc2ccccc2c1=O	0.68	-1.0
x	x	x	3	-12	COc1cc(OC)cc(-c2sc3ccc(OC)cc3c2-c2ccc(OCCN3CCOCC3)cc2)c1	0.71	-2.1
5.3	-14	i	-1	0.9	COc1ccccc1OCCCC(=O)Nc1ccc([N+](=O)[O-])cc1Br	0.65	1.7
1.4	0	i	-2	1.2	CC(C)CCNC(=O)c1onc(CSc2ccccc2)c1C(=O)NCCC(C)C	0.7	-3.8
5.0	-8	i	5	2.8	Cc1nc(SCc2ccc([N+](=O)[O-])cc2)n[nH]1	0.67	-1.5
3.0	-5	x	2	1.6	CCCCNC(=O)/C=C/c1ccc(OC)c(Br)c1	0.69	0.5
-4.1	0	x	15	2.4	COC(=O)CSc1nc(C)cc(C(F)(F)F)c1C#N	0.75	3.4
1.0	-1	i	-6	2.4	O=C1CN(C(=O)CNCc2ccc(Cl)cc2)c2ccccc2N1	0.68	5.8
7.4	90*	i	7	3.4	Nc1cccc(CCc2ccncc2)c1	0.69	5.2
1.8	-7	x	13	-0.7	COc1ccc(CNc2ncnc3cc(OC)c(OC)cc23)cc1	0.77	2.4

Next section.
LANA-H2B inh	ALR inh	FGF22 binding	B2AR ag	UCH37 DUB inh	mol	Ecoli growth	HNF4A DNA FP
0.9	-46	i	14	2.8	Cc1cc2c(NC(=O)Nc3ccc(C(F)(F)F)cc3)cccc2nn1	0.64	-2.5
-1.1	-22	x	-2	-1.1	CN(CC(=O)NCCc1ccccc1)S(=O)(=O)c1cccs1	0.69	2.3
-1.8	0	i	-8	-1.5	COc1ccc(NC(=O)CN(C)C(=O)CNC(=O)c2sc3ccccc3c2Cl)cc1	0.63	2.2
-8.9	-1	x	-4	3.9	COC(=O)CSc1nnc(CCc2nc3ccccc3[nH]2)n1C	0.69	1.4
-1.5	5	x	5	4.5	COCCNC(=O)C(c1ccc(Cl)cc1)N(C(=O)Cn1nnc2ccccc21)c1cccnc1 (centres undefined)	0.67	1.9
7.9	-14	i	-2	3.0	CCOc1ccc(C(=O)CCC(=O)Nc2cccc(S(=O)(=O)N3CCCCC3)c2)cc1	0.7	-0.7
10	8	i	6	5.0	CCCCNC(=O)N1CCN(c2ncccn2)CC1	0.68	1.8
1.5	2	x	-7	1.8	Cc1cc(C)cc(N(C(=O)c2ccc3c(c2)OCO3)C2C=CS(=O)(=O)C2)c1 (centres undefined)	0.68	1.0
-5.0	-6	i	-2	4.7	CCCCCCC1CCC(C(=O)N2CCOCC2)CC1 (centres undefined)	0.65	-0.9
-9.9	-8	x	35	9.0	COCc1nnc(NC(=O)c2cc(OC)c(OC)cc2[N+](=O)[O-])s1	0.71	1.6
-3.0	-5	i	-11	i	CCNc1nc2nc3ccc(C)cn3c(=O)c2cc1C(=O)NCC1CCCO1 (centres undefined)	0.67	0.2
-0.3	x	x	3	3.6	NC(=O)c1ccc(Oc2ccc(Cl)c3ccccc23)c([N+](=O)[O-])c1	0.69	1.3
-4.0	2	i	15	-5.8	COc1ccc(-c2coc3cc(OC)cc(OC)c3c2=O)cc1	0.7	0.1
-1.9	-22	i	5	x	CCOC(=O)/C(=N\Nc1ccccc1)P(=O)(c1ccccc1)c1ccccc1	x	-3.4
2.8	x	i	-3	0.6	CCOc1ccc(S(=O)(=O)N2CCN(CC(O)COc3cccc([N+](=O)[O-])c3)CC2)cc1 (centres undefined)	0.64	5.6
3.5	98*	i	1	1.1	CCCCNC(=O)c1onc(CSc2ccc(C)c(C)c2)c1C(=O)O	0.66	-1.1
1.5	-3	i	1	0.7	Cc1cccc(NC(=O)CCNS(=O)(=O)c2ccc(Cl)cc2)c1	0.67	-0.1
6.6	-23	i	-6	0.0	CC1CCCC(NC(=O)c2ccc3snnc3c2)C1C (centres undefined)	0.7	5.5
1.3	-9	i	-7	4.5	Cc1ccc(N2C(=O)[C@@H]3C(c4cccnc4)=NO[C@@H]3C2=O)cc1	0.67	5.9
0.9	3	x	-5	x	CCN(Cc1ccncc1)C(=S)Nc1c(C)cccc1C	x	-2.8

Shown in markdown: part of the list above.
| structure | LANA-H2B inh | ALR inh | FGF22 binding | B2AR ag | UCH37 DUB inh | Ecoli growth | HNF4A DNA FP |
| --- | --- | --- | --- | --- | --- | --- | --- |
| COCc1nnc(NC(=O)c2cc(OC)c(OC)cc2[N+](=O)[O-])s1 | -9.9 | -8 | x | 35 | 9.0 | 0.71 | 1.6 |
| CCCCNC(=O)N1CCN(c2ncccn2)CC1 | 10 | 8 | i | 6 | 5.0 | 0.68 | 1.8 |
| CCOc1ccc(S(=O)(=O)N2CCN(CC(O)COc3cccc([N+](=O)[O-])c3)CC2)cc1 (centres undefined) | 2.8 | x | i | -3 | 0.6 | 0.64 | 5.6 |
| COCCNC(=O)C(c1ccc(Cl)cc1)N(C(=O)Cn1nnc2ccccc21)c1cccnc1 (centres undefined) | -1.5 | 5 | x | 5 | 4.5 | 0.67 | 1.9 |
| CCNc1nc2nc3ccc(C)cn3c(=O)c2cc1C(=O)NCC1CCCO1 (centres undefined) | -3.0 | -5 | i | -11 | i | 0.67 | 0.2 |
| CCCCNC(=O)c1onc(CSc2ccc(C)c(C)c2)c1C(=O)O | 3.5 | 98* | i | 1 | 1.1 | 0.66 | -1.1 |

New compounds follow.
LANA-H2B inh	ALR inh	FGF22 binding	B2AR ag	UCH37 DUB inh	mol	Ecoli growth	HNF4A DNA FP
-0.5	0	i	8	-1.0	CCS(=O)(=O)Nc1ccc(C(=O)NCCSc2ccccc2)cc1	0.61	-0.4
-4.3	19	i	-9	6.0	Cc1ccc(-n2c(SCC(=O)N(C)C3CCS(=O)(=O)C3)nc3ccccc3c2=O)cc1 (centres undefined)	0.69	1.8
x	x	x	4	6.9	COc1ccc(C(=O)COC(=O)C(CCCCN2C(=O)C3C4C=CC(C4)C3C2=O)N2C(=O)C3C4C=CC(C4)C3C2=O)cc1 (centres undefined)	0.65	4.0
3.5	-2	i	3	4.6	O=C(NN=C(Cc1ccccc1)Cc1ccccc1)c1ccccc1F	0.69	1.5
3.5	12	i	5	-2.8	Cc1ccc(-n2c(COc3ccccc3)n[nH]c2=S)cc1	0.65	-0.8
0.3	-20	i	2	2.9	CC(CN1CCN(C)CC1)OC(=O)c1cccc(F)c1 (centres undefined)	0.59	0.2
-1.4	-5	i	x	x	CC(C)CC1NC(=O)c2cc(Cl)ccc2-n2c1nc1ccccc1c2=O (centres undefined)	x	x
x	x	i	4	x	CCc1ccc(OCC(=O)N/N=C(\C)c2ccc(O)cc2O)cc1	x	3.0
4.9	35	x	-1	1.0	Cc1cc(C2C(C#N)=C(N)OC3=C2C(=O)CC(C)(C)C3)c(C)s1 (centres undefined)	0.72	-2.3
-1.7	-14	i	13	-0.4	CSc1ccc(/C=C/C(=O)Nc2ccccc2)cc1	0.72	-1.1
0.3	-3	i	4	1.5	CCOc1cc(CNCCO)cc(Br)c1OCc1cccs1	0.66	-2.9
-2.0	-57	x	17	4.2	O=C(Nc1ccc2c(c1)OCO2)C1CCN(S(=O)(=O)c2ccc3c(c2)OCCO3)CC1	0.72	-1.5
-0.8	-4	i	12	-14	CCSc1nc2sc3c(c2c(=O)n1-c1ccccc1C)CCN(C)C3	0.66	3.0

Whole records from above. Order of screens: LANA-H2B inh	ALR inh	FGF22 binding	B2AR ag	UCH37 DUB inh	Ecoli growth	HNF4A DNA FP
`O=C(CC1SC(=Nc2cccc3ccccc23)N(Cc2ccccn2)C1=O)Nc1ccccc1Br` (centres undefined) is listed with 0.2	1	i	-10	0.1	0.68	1.8
`Nc1cccc(CCc2ccncc2)c1` is listed with 7.4	90*	i	7	3.4	0.69	5.2
